HSD17B inhib = inhibitors of human HSD17B10 dehydrogenase. AID 893. 7.6% of 75,000 active. recombinant HSD17B10, NADH fluorescence kinetic; many of its hits are not listed in these tables. Potency, µM (highest dose often 57.1 µM), inactives show top-dose activity change, negative = inhibition, most hits filed as inhibitors; active = well fitted inhibition curve with a large enough effect; inconclusive = small, poorly fitted or top-dose-only effect; inactive = no such curve, though single readings can be large or run the other way;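 note: the protocol describes HADH2 (HSD17B10) and not the HSD17B4 of the title; nearly all actives have a fitted effect of over 70% in size; most hits overshoot -100% by far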
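20 nM HADH2, pH 9.0 Tris/Tween; cpd preinc 15 min RT; start w/ 1 mM NAD+ + 90 uM b-hydroxybutyryl-CoA; kinetic fluor ex360/em450 q30s x 4 min; delta last-first.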
Active calls of the source: *; ? = inconclusive; [ ] = remark or other dose. % is set by controls: 0 for no effect and ±100 for the full control effect; potency is the fitted concentration of half-maximal effect. This is a subset; rates above refer to the full screens.

SMILES | HSD17B inhib
CN(C)C(N)=NCCC[C@H](N)C(=O)O | -9%
O=C(OC(C(=O)NC1CCCC1)c1ccccc1F)c1ccco1 (stereo not drawn) | 2%
Cc1cc(NC(=O)CCCOc2ccc(Cl)cc2Cl)no1 | 11%
COc1ccc2c(c1OC)C(=O)OC2Nc1ccccn1 (stereo not drawn) | 4%
O=C(Nc1ccccn1)c1cccnc1 | 5%
Cc1c(N(C)C(=O)C23CC4CC(CC(C4)C2)C3)c(=O)n(-c2ccccc2)n1C | 12%
COC(=O)c1ccc(C(=O)OC)c(NC(=O)CN2CCN(c3ccccc3)CC2)c1 | 0%
COc1ccc(C2C(C(C)=O)=C(C)N=c3s/c(=C\c4ccc5c(c4)OCO5)c(=O)n32)c(OC)c1 (stereo not drawn) | -6%
CC(=O)NC1=C(OS(=O)(=O)c2ccc(C)cc2)CN(C)C1=O | 1%[11.4 µM]
CCOC(=O)c1cc(OCC(=O)NC(C)C(C)C)cc(C(=O)OCC)c1 (stereo not drawn) | -2%
CCN(CC(=O)Nc1c(C(=O)OC)[nH]c2ccc(Cl)cc12)c1ccc2c(c1)OCO2 | -9%
CCOc1ccc2[nH]c(=O)c(CN(CCO)C(=O)c3ccc(F)cc3)cc2c1 | 25µM*
CC1(C)C(=O)C(c2ccccc2)=C2CN3C(=O)N(CCc4ccccc4)C(=O)C3(Cc3ccccc3)C=C21 (stereo not drawn) | 8%
CCOC(=O)CCCCC(=O)c1[nH]c(=O)[nH]c1CSc1nc(C)cc(=O)[nH]1 | -3%
COC(=O)C(C)Sc1nnc2n(-c3cccc(C)c3)c(=O)c3c4c(sc3n12)CCCC4 (stereo not drawn) | -5%
CC(=C/C(=O)O)/C=C/c1cccs1 | -11%
Cc1cccc(N(C(=O)Cn2nnc3ccccc32)C(C(=O)NCc2ccco2)c2ccncc2)c1 (stereo not drawn) | 1%
O=C(O)c1cccc(S(=O)(=O)N2CCCC2)c1 | 7%
CCOc1ccc2c(c1)C(C)=CC(C)(C)N2 | 32µM*
COc1cccc2cc(C(=O)NCC3CCCO3)c(=O)oc12 (stereo not drawn) | -18%

The last 2 records of the section before open the next one.
SMILES | HSD17B inhib
CCOc1ccc2c(c1)C(C)=CC(C)(C)N2 | 32µM*
COc1cccc2cc(C(=O)NCC3CCCO3)c(=O)oc12 (stereo not drawn) | -18%
Cc1cnc(NC(=O)c2ccc3c(c2)C(=O)N(Cc2ccco2)C3=O)s1 | 0%
COc1ccc(N(CC(=O)N2CCc3ccccc32)S(=O)(=O)c2c(C)noc2C)cc1 | 2%
Cn1nc(C(=O)N2CCCC2)c2ccccc2c1=O | -5%
CCn1c(COc2ccccc2C)nnc1SCC(=O)Nc1cc(C)on1 | 11%
O=C1CCCc2c1cc(C(=O)NC1CCSC1=O)c(=O)n2-c1ccccc1 (stereo not drawn) | -4%
CC(=O)Nc1cc(-c2ccccc2)ccc1O | 6%
O=C(CN1CCN(S(=O)(=O)/C=C/c2ccccc2)CC1)NC(=O)NCc1ccco1 | -12%
O=c1cnc2cnc(Oc3ccccc3)nc2n1C1CC1 | -7%
O=C(NCc1n[nH]c(=S)n1-c1ccccc1)c1ccco1 | -3%
Cc1cc(=O)oc(C)c1C(=O)Nc1cnc2ccccc2c1 | -1%
CCCCCn1c(SCc2ccncc2)nc2cc(C(=O)NCc3ccco3)ccc2c1=O | -19%
CN(C/C(O)=C(\C#N)c1ccccc1)C1CCCCC1 | 4%
CCOC(=O)c1c(C)c(C(=O)NC2CCCCC2)c(C)n1CC | 6%
Cc1cc(C)n2nc(SC(C)C(=O)NCc3ccco3)nc2n1 (stereo not drawn) | -3%
Nc1nc2ccccc2n1C(=O)CCc1ccccc1 | 7%
Cc1c(C(=O)N2CCOCC2)oc2ccc(S(=O)(=O)N3CCCCCC3)cc12 | 4%
CCCC(=O)c1ccc(N2CCCCCC2)c(F)c1 | -5%
CCCCn1c(CN(Cc2ccccc2)Cc2ccccc2)nc2c1c(=O)n(C)c(=O)n2C | 6%
c1ccc(CNc2nc(-c3ccc4c(c3)OCO4)nc3ccccc23)cc1 | ?
COc1cccc(C(=O)N2CCSC2=S)c1 | 0%
COc1ccc(-c2noc(CCC(=O)NCc3cccnc3)n2)cc1 | -2%
CCC1=C2CC[C@H]3C(=O)N(c4ccccc4)C(=O)[C@H]3[C@H]2[C@@]2(Cc3ccccc3)C(=NCC3CC3)OC(=O)N2C1=O | 14%
Cc1ccccc1-c1nnc(SCC(=O)Nc2ccc(Cl)cc2)n1N | -3%
Cc1cc(C)c(OCC(=O)Nc2cccc(NC(=O)c3ccco3)c2)c(Br)c1 | ?
Cc1ccccc1CSc1nnc(-c2ccco2)n1Cc1ccco1 | -15%
CC1CN(S(=O)(=O)c2ccccc2)CC(C)O1 (stereo not drawn) | 17%
Cc1ccc(C)c(-n2c(Cc3cc(=O)[nH]c(=O)[nH]3)nnc2SCC(=O)NCc2ccco2)c1 | -3%
O=C(NCCN1CCOCC1)C1CCC(=O)N1Cc1ccccc1Cl (stereo not drawn) | 7%
CCOC(=O)C1=C(N)Oc2cc(C)[nH]c(=O)c2C1c1ccncc1 (stereo not drawn) | -1%
CCCc1noc2c1/C(=N\O)CC(CC(C)SCC)C2 (stereo not drawn) | -3%
COc1ccc(OC)c(NC(=O)c2[nH]c(C)c(C(C)=O)c2C)c1 | ?
c1cc2cn[nH]c2cc1NC1CCCCCC1 | 32µM*
CS(=O)(=O)C1=C(O)C(=O)N(CCCC(=O)O)C1c1ccccc1F (stereo not drawn) | 11%
OCCNc1ncnc2ccc(Br)cc12 | 9%
CC1C(=O)CC(c2ccccc2)N(C)C1c1ccccc1 (stereo not drawn) | -7%
CS(=O)(=O)Nc1ccc(S(=O)(=O)NCCc2ccccc2)cc1 | 4%
Cn1c(=O)[nH]c(=O)c2c1ncn2CCCc1ccccc1 | 9%
OC(CNCCc1ccc(Cl)cc1)COCc1ccco1 (stereo not drawn) | -4%
Cc1oc(/N=C/c2c(O)ccc3ccccc23)c(C#N)c1C | ?
COc1ccc(OC)c(-c2nnc(NC(=O)C(C)Sc3nncn3C)s2)c1 (stereo not drawn) | ?

Part of the list above in order of length of the SMILES, ascending:
SMILES | HSD17B inhib
OCCNc1ncnc2ccc(Br)cc12 | 9%
c1cc2cn[nH]c2cc1NC1CCCCCC1 | 32µM*
OC(CNCCc1ccc(Cl)cc1)COCc1ccco1 (stereo not drawn) | -4%
CC1CN(S(=O)(=O)c2ccccc2)CC(C)O1 (stereo not drawn) | 17%
CCCc1noc2c1/C(=N\O)CC(CC(C)SCC)C2 (stereo not drawn) | -3%
CC1C(=O)CC(c2ccccc2)N(C)C1c1ccccc1 (stereo not drawn) | -7%
Cn1c(=O)[nH]c(=O)c2c1ncn2CCCc1ccccc1 | 9%
O=C(NCCN1CCOCC1)C1CCC(=O)N1Cc1ccccc1Cl (stereo not drawn) | 7%
COc1ccc(-c2noc(CCC(=O)NCc3cccnc3)n2)cc1 | -2%
Cc1ccccc1-c1nnc(SCC(=O)Nc2ccc(Cl)cc2)n1N | -3%
CS(=O)(=O)Nc1ccc(S(=O)(=O)NCCc2ccccc2)cc1 | 4%
COc1ccc(OC)c(NC(=O)c2[nH]c(C)c(C(C)=O)c2C)c1 | ?
COc1ccc(OC)c(-c2nnc(NC(=O)C(C)Sc3nncn3C)s2)c1 (stereo not drawn) | ?
Cc1cc(C)c(OCC(=O)Nc2cccc(NC(=O)c3ccco3)c2)c(Br)c1 | ?
Cc1ccc(C)c(-n2c(Cc3cc(=O)[nH]c(=O)[nH]3)nnc2SCC(=O)NCc2ccco2)c1 | -3%
CCC1=C2CC[C@H]3C(=O)N(c4ccccc4)C(=O)[C@H]3[C@H]2[C@@]2(Cc3ccccc3)C(=NCC3CC3)OC(=O)N2C1=O | 14%

(more compounds)
SMILES | HSD17B inhib
O=C(c1cccc(N2C(=O)C3CC=CCC3C2=O)c1)N1CCCCCC1 (stereo not drawn) | 1%
CCOC(=O)CCCNC(=O)CN1C(=O)NC(CCc2ccccc2)C1=O (stereo not drawn) | 5%
CCOc1ccc(NC(=O)C(C)Sc2nnnn2C)cc1 (stereo not drawn) | 17%
Cn1c(C(=O)NC2CC2)cc2c(=O)n(C)c3ccccc3c21 | ?
CCOC(=O)Cc1cnc(NC(=O)NC(C(=O)OCC)(c2ccccc2)C(F)(F)F)s1 (stereo not drawn) | -4%
O=C(Cc1cccs1)N1CCN(c2ccccn2)CC1 | ?
CC1CN(Cc2nc3c(c(=O)n(C)c(=O)n3C)n2CCc2ccccc2)CC(C)O1 (stereo not drawn) | 11%
COCCCNC(=O)CCNS(=O)(=O)c1ccc(C)cc1 | 3%
COc1ccc(S(=O)(=O)N2CCCCCC2)cc1C(=O)OCC(=O)NC(N)=O | 1%
CCCN(CCC)C(=O)Cn1c(=O)n(CCCCC(=O)NCc2ccco2)c(=O)c2ccccc21 | 4%
Cc1ccnn2c(-c3ccccc3)c3c(=O)n(C)c(=O)n(C)c3c12 | 1%
Cc1noc(C)c1C(=O)OC(C(=O)NC1CCCC1)c1ccc(F)cc1 (stereo not drawn) | 5%
CN(C)c1ccc(C(c2nnnn2C(C)(C)C)N2CCN(C(=O)c3ccco3)CC2)cc1 (stereo not drawn) | 4%
O=C(O)C/C(=C\c1ccco1)C(=O)O | 2%[11.4 µM]
COC(=O)Cn1cnc2sc(C)c(S(=O)(=O)N3CCN(c4ccccc4OC)CC3)c2c1=O | 4%
COc1ccc(CCN(Cc2cc3cccc(C)c3[nH]c2=O)C(=O)N2CCCC2)cc1OC | -9%
COc1ccccc1-c1nnc(SCC(=O)Nc2ccc(Cl)cc2Cl)o1 | -12%
CCOC(=O)NCc1ccc2c(c1)cc(C)n2C | -24%
Cc1cc(C)n(/N=C/c2cccc(O)c2)c(=O)c1C(N)=O | 0%
CC(C)(C)C1CCc2onc(C(=O)Nc3ccc(F)cc3F)c2C1 (stereo not drawn) | 1%
COC(=O)CN(c1ccc(C)c(Cl)c1)S(C)(=O)=O | 3%
O=C(O)c1cccc2c1C(=O)N(C1CCCCC1)C2 | -24%
O=C(c1cnn2ccccc12)N1CCc2ccccc21 | 3%
CN(C)c1ccc(NC(=O)CN2CCN(CC(=O)Nc3ccc(F)cc3)CC2)cc1 | 9%
O=C(CSc1n[nH]c(-c2cccnc2)n1)Nc1ccnc2ccccc12 | -5%
CCOC(=O)CSc1nnc(C2CCCCC2)n1C | 7%
CC(=O)N1CC=C2C(C#N)=C(N)C(C#N)(C#N)C(C)C2C1 (stereo not drawn) | 261%[activator]
CC(C)C(=O)Nc1cccc(-c2cn3ccsc3n2)c1 | -3%
O=C(O)c1cc2c(ccc3ccccc32)o1 | ?
C/C(=C1/SC(N2CC(C)OC(C)C2)=NC1=O)c1ccccc1 (stereo not drawn) | 0%
Nc1ccc(CCNc2ncnc3c2ncn3[C@@H]2O[C@@H](CO)[C@H](O)[C@@H]2O)cc1 | 9%
COc1ccccc1-c1cc(Nc2ccc(F)cc2)ncn1 | ?
Cn1c(=O)c2c(ncn2CC(=O)N2CCN(c3cccc(Cl)c3)CC2)n(C)c1=O | 0%
CCOC(=O)N1CCN(C(=O)C(CC(C)C)NC(=O)C2CCCCC2)CC1 (stereo not drawn) | 11%
COc1ccc2oc(=O)c(C(=O)N3CCN(c4ccccc4F)CC3)cc2c1 | 25µM*
COC(=O)CSc1nnc(CNC(=O)c2ccccc2OC)n1-c1ccc(OC)cc1 | 5%
CCCCCCC(c1c(C)n(C)n(-c2ccccc2)c1=O)c1c(C)n(C)n(-c2ccccc2)c1=O | 4%
CCN(CCCNC(=O)C1CCCN(S(=O)(=O)c2cnc[nH]2)C1)c1ccccc1 (stereo not drawn) | -5%
CCN(CC)CCCC(C)n1c(-c2ccccc2)nc2c(NC3CCCCC3)nc(C)nc21 (stereo not drawn) | 25µM*
CCOC(=O)Nc1ccc2c(c1)N(C(=O)N1CCN(C)CC1)c1ccccc1S2 | 6%
Cc1cc(C(C)(C)C)c(O)c(C(C)(C)C)c1 | 3%
Cc1cc(-n2c(C)cc(C(=O)CSc3ncnc4ccccc34)c2C)no1 | -19%
Cc1cccc(-c2c3c(=O)n(C)c(=O)n(C)c3cn2CCO)c1 | -4%
Cc1ccc(S(=O)(=O)Cn2nnnc2CN2CCN(C(=O)c3ccco3)CC2)cc1 | 3%
COc1ccc(-n2c(SCC(=O)N3CCCCC3)nnc2-c2cccnc2)cc1 | 2%
COC(=O)c1ccc2c(=O)n(CCCCCC(=O)NCc3ccccn3)c(=O)[nH]c2c1 | 32µM*
Cc1ccc(Cn2c(SCC(=O)NCc3ccco3)nc3ccsc3c2=O)cc1 | -6%
COc1ccc(OC)c(C2C(C(C)=O)=C(O)C(=O)N2Cc2cccnc2)c1 (stereo not drawn) | -19%
COc1ccc(S(=O)(=O)N2CCN(c3ccccc3OC)CC2)cc1OC | ?
Cc1ccc(CS(=O)(=O)CCC(=O)N2CCOCC2)cc1 | 14%
CC(C)(C)Nc1nc(SCc2ccccc2)nc(N2CCOCC2)n1 | -13%
COC(=O)c1[nH]c2ccc(C)cc2c1NC(=O)CN1CCN(c2ccc(F)cc2)CC1 | ?
CCCOC(=O)c1ccc(OC(=O)c2ccco2)cc1 | 1%
COc1cccc(C2C(C(N)=O)=C(C)Nc3nc(-c4ccccc4Cl)nn32)c1 (stereo not drawn) | 1%
CC(CCc1ccccc1)NC(=O)CSc1nccc(=O)[nH]1 (stereo not drawn) | 7%
COc1ccc(-c2nc3cnc(OC)nc3n(Cc3ccc(F)cc3)c2=O)cc1 | ?
CCn1nnnc1SCC(=O)Nc1cccc(NC(C)=O)c1 | 11%
CC(C)(C)c1ccc2c(c1)OCC(C(=O)O)O2 (stereo not drawn) | 0%
CS(=O)(=O)c1ccc(Cl)c(NC(=O)COC(=O)CNC(=O)c2ccc(Br)o2)c1 | 7%
CCOC(=O)C1=C(C)Nc2ncnn2C1c1ccccc1F (stereo not drawn) | -2%
